Compound activity (PubChem)
Mtb growth – Confirmatory growth inhibition assay against Mycobacterium tuberculosis H37Rv, potency (AID 1949). 1.6% of 100,000 active. most inactive calls were filed without a number and no value below 0 was filed. inhibition, % at 10 µg/mL, or IC50 in µg/mL where a hit was titrated;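 active = confirmed in a dose series; inconclusive = about 50% or more but not retested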;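 note: bacteria grown 7 days with compound before Alamar blue readout; 0% = untreated bacteria and 100% = reference antibiotic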
The depositor's hits bear a star; i = inactive; ? = inconclusive.

SMILES	Mtb growth
CC(C)CN(CC(C)C)S(=O)(=O)c1ccc(C(=O)Nc2cccc([N+](=O)[O-])c2)cc1	i
COC(=O)c1ccc(C2Nc3ccccc3NC3=C2C(=O)CC(c2cccc(OC)c2)C3)cc1 (stereo not given)	i
COc1ccc(CSc2nc(N)c3c4c(sc3n2)COC(C)(C)C4)cc1	i
Cc1ccc(C(C)(C)C)c(OCCCCN2CCN(C)CC2)c1	i
CN1CCN(C(=O)CN(c2cc(Cl)ccc2Cl)S(C)(=O)=O)CC1	i
CCc1c(C)sc(NC(=S)Nc2ccc(OC(F)F)c(Cl)c2)c1C(=O)OC	i
COc1ccc(/C=N/N=C2/NC(=O)C(Cc3cc(Cl)ccc3Cl)S2)cc1 (stereo not given)	i
COc1ccccc1Oc1ccc(S(=O)(=O)N2CCOCC2)cc1	i
COc1ccc(C2CC(C(F)(F)F)n3ncc(C(=O)O)c3N2)cc1 (stereo not given)	i
CCOc1ccc(C(=O)Nc2ccccc2C(=O)NC(C)(C)C)cc1	i
O=S(=O)(NCc1ccncc1)c1cc(Cl)ccc1Cl	i
O=C(Oc1ccc(C(=S)N2CCOCC2)cc1)c1ccccc1F	i
COc1ccc(COC(=O)C2=C(C)NC3=C(C(=O)CCC3)C2c2ccc(N(C)C)cc2)cc1 (stereo not given)	i
Cc1ccc(-n2c(Cc3ccccc3)n[nH]c2=S)cc1	i
Cc1ccc(NC(=S)NC(=O)C2CCCC2)cc1C	?
CN(c1cccc(NC(=O)c2ccc(CSc3ccc(Cl)cc3)cc2)c1)S(C)(=O)=O	11%
O=S(=O)(c1cccc(N(C(F)F)S(=O)(=O)c2ccc(Cl)cc2)c1)N1CCCCCC1	i
CCc1ccc(-n2c(SCC(=O)N3CCCC3)nnc2-c2ccncc2)cc1	i
O=C(NC1C(=O)NNC1c1ccccc1)c1ccc(F)cc1 (stereo not given)	i
CC(=O)NC1C(=O)N(Cc2ccccc2)c2ccccc21 (stereo not given)	i
Cc1cc([N+](=O)[O-])nn1Cc1ccccc1	0%
O=C(Nc1cccc(S(=O)(=O)c2cccc(NC(=O)C3CC3)c2)c1)C1CC1	i
Cc1ccc([N+](=O)[O-])cc1S(=O)(=O)Nc1ccc(I)cc1	i
COc1ccc(-c2cc(=O)oc3cc(OC(C)C(=O)O)ccc23)cc1 (stereo not given)	i
COc1ccccc1N(CC(=O)NC(C)c1ccccc1)S(C)(=O)=O (stereo not given)	i
Cc1nc(=O)c(-c2ccccc2)c(C)n1CCCn1ccnc1	1%
COC(=O)c1ccccc1NC(=O)CNC(=O)c1ccc(Cl)cc1Cl	i
COC(=O)c1c(NC(=S)NCCc2cccc(Cl)c2)sc(C(=O)N(C)C)c1C	i
COC(=O)C(CC(C)C)NS(=O)(=O)c1ccc(OC)cc1 (stereo not given)	3%
CCOC(=O)c1c(C)oc2ccc(NS(=O)(=O)c3cccc4ccccc34)cc12	i
CCOc1nc(NCCc2ccc(OC)c(OC)c2)nc(N2CCN(c3ccc(OC)cc3)CC2)n1	i
CC(=O)c1ccc(Nc2nc(-c3cc4cc(Br)ccc4oc3=O)cs2)cc1	i
CCN(c1ccccc1)S(=O)(=O)c1ccc(NC(=S)NC(=O)c2cccs2)cc1	i
O=C(c1ccc(-c2ccccc2)cc1)N1CCC(C(=O)N2CCC(Cc3ccccc3)CC2)CC1	26%
CC(=O)C(Cc1ccccc1)(Cc1ccccc1)C(C)=O	i
c1cc(CNc2ccc3c(c2)OCCO3)ccn1	i
Cc1cccc(N(CC(N)=O)S(C)(=O)=O)c1C	i
O=C(CSc1nnc(-c2cccs2)n1-c1ccc(F)cc1)Nc1ccc(Cl)c(Cl)c1	i
CCOc1ccc(NC(=O)CSCc2ccc(C(=O)OC)cc2)cc1	i
C/C=C/c1ccc(OCCCN2CC(C)OC(C)C2)c(OC)c1 (stereo not given)	i
Cc1cccc(NC(=O)CSc2nnc(-c3cccs3)n2-c2ccccc2)c1C	i
O=S(=O)(c1ccc(Cl)cc1)N1CCN(C2C3CC4CC(C3)CC2C4)CC1 (stereo not given)	1%
CCOC(=O)C1=C(C)NC(=O)NC1c1cccs1 (stereo not given)	i
COc1ccc(C=O)cc1OC(=O)c1ccccc1F	17%
CC1CN(C(=S)c2cccc([N+](=O)[O-])c2)CC(C)O1 (stereo not given)	2%
O=C(C(=O)N1CCN(c2ccccc2)CC1)N1CCCCC1	i
C/C(N)=C(/C#N)C(NC(=O)C1CCCCC1)(C(F)(F)F)C(F)(F)F	1%
CCOc1ccc(N2C(=O)CC(NC3CCN(C(=O)c4cccc(Cl)c4)CC3)C2=O)cc1 (stereo not given)	i
CCCCC(=O)Nc1cccc(NC(=O)c2ccc(OC)cc2)c1	5%
COc1ccccc1C(=O)N1CCN(Cc2c[nH]c3ccccc23)CC1	i
Cc1ccc(-c2nn(-c3cc(N4CCOCC4)ccc3[N+](=O)[O-])c(=O)c3ccccc23)cc1	?
COC(=O)c1ccc(CN2C(=O)c3ccccc3S2(=O)=O)cc1	i
COc1ccc(-c2cc(C(F)F)n3ncc(C(=O)NC(C)CN4CCOCC4)c3n2)cc1 (stereo not given)	2%
O=C(Nc1cccnc1)C1CC(c2ccc(Cl)c(Cl)c2)=NO1 (stereo not given)	i
C=CCc1cccc(Cl)c1OCCCCN1CCOCC1	3%
NS(=O)(=O)c1ccc(NC(=O)c2ccc(-c3cccc(C(F)(F)F)c3)o2)cc1	i
Cc1ccc(NC(=O)Cn2cncc2-c2ccc([N+](=O)[O-])cc2)cc1C	i
Fc1ccccc1NC(=S)Nc1ccccc1Oc1ccccc1	i
Cc1ccc(S(=O)(=O)c2nc(S(=O)(=O)c3ccc(C)cc3)c(NCC3CCCO3)s2)cc1 (stereo not given)	2%
CCC(C)N1CCN(C(=O)c2ccncc2)CC1 (stereo not given)	i

Carrying on:
SMILES	Mtb growth
O=C(Nc1cccnc1)c1ccc2nc(-c3ccccc3)c(-c3ccccc3)nc2c1	2%
CCOc1ccc(-c2nc3n(n2)C(=O)CC(c2ccccc2)S3)cc1OCC (stereo not given)	i
CC1CCC(N2CCN(C(=O)c3ccccc3F)CC2)CC1 (stereo not given)	i
Cn1c(SCC(=O)Nc2ccc3c(c2)oc2ccccc23)nnc1-c1ccccc1	i
CCC(=S)/C=C1\Sc2ccc(OC)cc2N1CC	3%
O=C1NN=C2C1=NC1(CCCCC1)Cc1ccccc12	0.1µg/mL*
CCOC(=O)c1sc(NC(=O)CSc2nnc3c4ccccc4n(Cc4ccccc4)c3n2)nc1C	i
Cc1ccc(C(=O)Nc2cccc(N3CCCC3)c2)cc1	22%
CN(CC(=O)O/N=C(\N)c1ccc(Cl)cc1)S(=O)(=O)c1ccc(Cl)cc1	1%
CCCCOc1ccc(NC(=O)C(=O)NC2CC2)cc1	6%
Cc1cccc(C(=O)Oc2ccc(C=O)cc2Cl)c1	i
COc1cc(C)c(Br)cc1S(=O)(=O)NCCCN1CCOCC1	i
Cc1ccccc1NC(=S)NC1CCCC1	i
Cc1sc2ncn(C(C)C(=O)O)c(=O)c2c1-c1ccc(F)cc1 (stereo not given)	i
O=C(Cc1cccs1)Nc1ccc2c(c1)C(=O)N(CC1CCCO1)C2=O (stereo not given)	i
CN(Cc1ccccc1)C(=O)C1CCN(Cc2ccc(F)cc2)CC1	i
COc1ccc(-c2nnc(SCC(=O)Nc3ccc(Cl)c(Br)c3)o2)cc1	i
Cc1ccc2oc(C(=O)Nc3ccc(-c4ccccc4)cc3)c(C)c2c1	1%
Cc1sc(NC(=O)COc2ccc(-c3ccccc3)cc2)c(C(N)=O)c1C	i
O=C(NCc1ccco1)C1CCCN(S(=O)(=O)c2ccc(Cl)cc2)C1 (stereo not given)	i
OC(Cn1nnc2ccccc21)Cn1c2ccc(Cl)cc2c2cc(Cl)ccc21 (stereo not given)	9%
COc1ccc(CNC(=O)C2CCCCC2)cc1	i
O=C(NC(=S)NC12CC3CC(CC(C3)C1)C2)c1ccccc1Br	i
Cc1ccc(C(=O)Oc2ccc(/C=c3/sc4nc5ccccc5n4c3=O)cc2)cc1	i
Cc1cc(OCCOCCN2CCN(C)CC2)cc(C(C)C)c1	i
COc1ccc(S(=O)(=O)Nc2ccc(S(=O)(=O)N3CCOCC3)cc2)cc1Br	i
COc1cc(SC)ccc1C(=O)Nc1cccc(NC(C)=O)c1	i
O=C(COc1ccccc1)Nc1ccc(O)cc1	i
CC(C)OC(=O)C(C)n1cnc2scc(-c3ccc(Br)cc3)c2c1=O (stereo not given)	8.3µg/mL*
CCC(=O)N1N=C(c2ccc(C)o2)CC1c1ccc(OC)cc1 (stereo not given)	i
CC(=O)Oc1cccc(C(=O)Nc2cc(Cl)ccc2O)c1	i
CC(C)(C)C(=O)Nc1ccc(C(=O)Nc2nccs2)cc1	i
COC(=O)C(C)Oc1ccc2c(=O)c(Oc3ccc(OC)cc3)coc2c1 (stereo not given)	6µg/mL*
Cc1ccc(S(=O)(=O)NCCSCc2c(F)cccc2Cl)cc1[N+](=O)[O-]	i
O=C(COc1ccc2ccc(=O)oc2c1)c1cccc([N+](=O)[O-])c1	i
CCOc1ccc2nc(NC(=O)C3CCCC3)sc2c1	7%
O=C(NCCN1CCOCC1)C1CCN(Cc2cccnc2)CC1	2%
COc1ccc(OC)c(NC(=O)Nc2ccc(Br)c(Cl)c2)c1	12%
O=C(Nc1ccc2oc(-c3ccc(F)cc3Cl)nc2c1)c1cccnc1	7%
CSC1=NC2(CCCCC2)C2=C(CCCC2)N1	4%

Retrieved one by one from the entries so far:
SMILES	Mtb growth
Cc1ccc(C(=O)Oc2ccc(/C=c3/sc4nc5ccccc5n4c3=O)cc2)cc1	i
O=C(COc1ccccc1)Nc1ccc(O)cc1	i
CCOc1ccc2nc(NC(=O)C3CCCC3)sc2c1	7%
COc1ccc(OC)c(NC(=O)Nc2ccc(Br)c(Cl)c2)c1	12%

Later entries.
SMILES	Mtb growth
Cc1cc(Nc2cccc(Cl)c2)nc(NCc2ccccc2)n1	1.4µg/mL*
COc1cccc(C(=O)OCc2nc3ccccc3s2)c1	44%
O=[N+]([O-])c1ccccc1CN1CCC(N(CCc2ccccc2)Cc2ccccc2)CC1	2%
O=C(CCc1ccccc1)N1CCN(c2ccc(Cl)cc2)CC1	i
CCOC(=O)c1ccc(NC(=S)Nc2ccc(F)c(Cl)c2)cc1	0.28µg/mL*
O=C(Cc1ccc(Cl)cc1)Nc1ccc(C(=O)Nc2cccc([N+](=O)[O-])c2)cc1	i
CNCc1cc(Cl)cc(OC)c1OC(C)C	i
Cc1ccc(C(=O)CSc2nnc(-c3ccco3)o2)o1	5%
COc1ccc(C(=O)O)cc1S(=O)(=O)Nc1cccc(C)c1	i
O=C(O)Cn1cnc2sc(-c3ccccc3)cc2c1=O	i
Cc1ccc(NC(=O)NCCCN2CCOCC2)cc1	i
CC(=O)OC(COc1ccc(F)cc1)Cn1c(C)nc2ccccc21 (stereo not given)	i
CC1Cn2c(nnc2-c2cc3ccccc3cc2O)S1 (stereo not given)	i
CCOC(=O)Cn1cc(/C=C(/C#N)c2ccc(C#N)cc2)c2ccccc21	i
CCC(=O)Nc1nc2c(s1)CCCCCCCCCC2	3%
COc1cc(N2N=C(c3ccccc3)CC2c2ccccc2)c(C=O)cc1C=O (stereo not given)	1%
O=C(Nc1nnc(C2CCCCC2)s1)c1sc2ccccc2c1Cl	0.37µg/mL*
O=C(Oc1ccc2c(c1)CCCC2)c1ccc(F)cc1	i
CSc1cccc(NC(=O)CSc2ccccc2)c1	i
Cc1noc(C)c1C(=O)NC(C)c1ccc2c(c1)OCO2 (stereo not given)	6%

By substructure, the entries above with a CF3 group
SMILES	Mtb growth
COc1ccc(C2CC(C(F)(F)F)n3ncc(C(=O)O)c3N2)cc1 (stereo not given)	i
C/C(N)=C(/C#N)C(NC(=O)C1CCCCC1)(C(F)(F)F)C(F)(F)F	1%
NS(=O)(=O)c1ccc(NC(=O)c2ccc(-c3cccc(C(F)(F)F)c3)o2)cc1	i

Returning to the listing with the 3 entries that preceded the break.
SMILES	Mtb growth
O=C(Oc1ccc2c(c1)CCCC2)c1ccc(F)cc1	i
CSc1cccc(NC(=O)CSc2ccccc2)c1	i
Cc1noc(C)c1C(=O)NC(C)c1ccc2c(c1)OCO2 (stereo not given)	6%
Nc1nonc1-c1nc2ccccc2n1CC(=O)Nc1ccccc1C(=O)O	1%
CCOC(=O)c1cnc2ccc(C(=O)OC)cc2c1NCc1ccco1	0%
Fc1ccccc1Nc1ncnc2c1cnn2-c1ccccc1	i
CCCC(=O)Nc1ccc(Cl)c(NC(=O)COc2ccc(C3CCCCC3)cc2)c1	i
COc1cccc(C(=O)Nc2ccc(OCC(=O)c3ccc(F)cc3)cc2)c1	i
CCOC(=O)C1CCCN(C2CC(=O)N(c3ccc(C(C)C)cc3)C2=O)C1 (stereo not given)	i
CSc1ncc(C(=O)NCc2ccco2)cn1	3µg/mL*
FC(F)(F)c1cccc(N2CCN(C(=S)NCCc3ccccc3)CC2)c1	i
COc1ccc(N(CC(=O)Nc2ccc(NC(C)=O)cc2)S(C)(=O)=O)cc1Cl	i
CCOc1ccc(N2C(=O)CC(NCc3ccc(OC(F)(F)F)cc3)C2=O)cc1 (stereo not given)	i
N#Cc1ccc(C(=O)Nc2ccc3c(c2)Cc2ccccc2-3)c(F)c1	i
CC(C)C1Cc2c(sc3nc(SCC(=O)Nc4ccccc4Cl)n(Cc4ccccc4)c(=O)c23)CO1 (stereo not given)	6%
O=c1[nH]c(N2CCN(Cc3ccccc3)CC2)nc2c1CCCC2	i

A section taken from the entries so far, as a working copy:
SMILES	Mtb growth
CC(C)CN(CC(C)C)S(=O)(=O)c1ccc(C(=O)Nc2cccc([N+](=O)[O-])c2)cc1	i
COC(=O)c1ccc(C2Nc3ccccc3NC3=C2C(=O)CC(c2cccc(OC)c2)C3)cc1 (stereo not given)	i
COc1ccc(CSc2nc(N)c3c4c(sc3n2)COC(C)(C)C4)cc1	i
Cc1ccc(C(C)(C)C)c(OCCCCN2CCN(C)CC2)c1	i

Not all compounds are listed (hit frequency here may not be typical).
